Hsc70 ATP site: Hsc70 inhibitors, probe displacement, primary screen, biochemical, fluorescence polarization (AID 568). 83,000 tested, under 10 active. Heat shock cognate 71 kDa protein (Homo sapiens). displacement, % at 20 µM; hits with a dose series show IC50 in µM. Hsc70 fluorescence polarization, probe displacement; higher % means a stronger effect; strong numbers were not always called active;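 active = displacement above 50% without optical interference and an IC50 on retest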;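 note: ATPase domain with a fluorescein-tagged ATP probe; 0% = vehicle and 100% = excess ADP; read after one hour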
WNV NS2B-NS3 inh: inhibitors of WNV NS2B-NS3 protease, primary screen, biochemical, fluorogenic substrate; Genome polyprotein (West Nile virus), P06935; fluorogenic substrate Ex360/Em465; stronger effect = lower value; z-score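 (tested at a level between 10 and 100 µM)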; 65,000 tested, 0.18% active;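 active = z-score at -3 or under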;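 note: score is relative to mean and spread of the compound wells of a plate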
Target sequence (P06935 1371-1501 limits assumed): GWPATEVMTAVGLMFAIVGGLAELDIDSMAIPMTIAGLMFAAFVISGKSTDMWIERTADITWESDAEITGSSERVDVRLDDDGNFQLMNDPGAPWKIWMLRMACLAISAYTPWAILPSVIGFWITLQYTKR
Target sequence (P06935 1502-1679 limits assumed): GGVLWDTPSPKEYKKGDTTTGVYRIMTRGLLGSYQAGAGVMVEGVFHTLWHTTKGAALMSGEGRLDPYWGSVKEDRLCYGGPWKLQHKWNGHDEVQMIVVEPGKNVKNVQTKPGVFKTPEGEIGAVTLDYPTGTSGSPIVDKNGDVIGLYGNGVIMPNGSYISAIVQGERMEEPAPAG
MT1-MMP reporter: inhibitors of MT1-MMP promoter transcription, cell-based, luciferase reporter, luminescence (AID 618); MT1-MMP promoter luciferase reporter cells, luminescence; calls from a first round at 10 µM; hits with a dose series show EC50 in µM; 87,000 tested, 0.62% active;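 active = over half of the reporter light lost at 10 µM or EC50 under 50 µM; inactive = the rest and hits that failed the dose series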;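 note: actives suppress MT1-MMP promoter-driven transcription so potencies describe inhibitors; HT1080 fibrosarcoma cells; overnight exposure; toxic or luciferase-blocking compounds were not removed from the actives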
* hit, by the source's call; i = inactive; . = not tested or not shown; + = active, no number.

SMILES | Hsc70 ATP site | WNV NS2B-NS3 inh | MT1-MMP reporter
O=C1CC(=C2c3ccccc3-c3ccccc32)C(=O)N1CCN1CCN(c2ccccc2)CC1 | 0.7% | . | i
C=CCc1c(C)nc(SC)nc1Nc1ccc(C(C)=O)cc1 | -9.7% | 0.2 | i
CCCCCCC(=O)c1c(C)[nH]c(C(=O)OCC)c1C | 0.9% | 0.23 | i
CCOc1ccc(C2C(C(=O)c3ccco3)=C(O)C(=O)N2Cc2cccnc2)cc1 (centres undefined) | -3.0% | -1.4 | i
CCCCOc1ccc(NC2=NC3(CCCCC3)N=C(N)N2)cc1 | -3.3% | 1.9 | i
COc1cccc(C(=O)Nc2ccc(NC(=O)C3CC3)cn2)c1 | 4.7% | 0.22 | i
Cc1oc(-c2ccc(Cl)cc2)nc1CN1CCCC(C(=O)NCCCN2CCCC2=O)C1 (centres undefined) | 3.8% | -1.6 | i
O=C(N/N=C/C(Cl)=C/c1ccccc1)c1cnccn1 | 1.7% | . | i
c1ccc(CNc2nnnn2-c2ccccc2)cc1 | -4.2% | . | i
COC(=O)c1ccccc1NC(=O)CC#N | 7.3% | 1 | i
Cc1cccc(NS(=O)(=O)c2cc(C(=O)OCC(=O)Nc3cc(C)on3)ccc2C)c1 | -5.3% | -0.15 | i
CC(=O)C1=C(C)OC(N)=C(C#N)C1c1ccncc1 (centres undefined) | 8.2% | 0.12 | i
Cc1c(C(=O)OCC(=O)N2CC(C)OC(C)C2)oc2ccc(Br)cc12 (centres undefined) | 4.3% | -0.39 | i
COC(=O)c1nonc1NCn1nnc2ccccc21 | -0.7% | -0.27 | i
N#CC1=C(N)N(c2ccccc2)C2=C(C(=O)CCC2)C1c1ccsc1 (centres undefined) | 2.6% | 0.88 | i
Cc1cc(C)cc(N2C(=O)CC(n3ccnc3)C2=O)c1 (centres undefined) | 0.3% | 0.05 | i
O=C(O)CC1SC(=Nc2cccc(C(F)(F)F)c2)NC1=O (centres undefined) | -0.7% | 0.66 | i
O=C(CCn1c(=O)oc2ccccc21)N1CCc2ccccc21 | -0.6% | 0.28 | i
CCOC(=O)COc1ccc(S(=O)(=O)NCc2ccco2)cc1 | -0.1% | -0.73 | i
CN1C(=O)C2CN(CCc3ccccc3)CNC2N(C)C1=O (centres undefined) | 9.6% | -1.1 | i
CCOc1ccc2[nH]c(=O)c(C(c3nnnn3CCOC)N3CCOCC3)cc2c1 (centres undefined) | 3.1% | 0.11 | i
COC(=O)c1ccc(C(=O)OCc2nc3cc4ccccc4cc3[nH]2)cc1 | 8.2% | . | i
Cc1ccn2c(NC3CCCCC3)c(C(C)C)nc2c1 | 0.1% | . | i
COc1ccc(OC)c(S(=O)(=O)Nc2cccc(F)c2)c1 | 0.5% | . | i

A different layout for part of the listing above:
Every second line gives: Hsc70 ATP site	WNV NS2B-NS3 inh	MT1-MMP reporter
O=C(O)CC1SC(=Nc2cccc(C(F)(F)F)c2)NC1=O (centres undefined)
→ -0.7%	0.66	i
Cc1ccn2c(NC3CCCCC3)c(C(C)C)nc2c1
→ 0.1%	.	i
COC(=O)c1nonc1NCn1nnc2ccccc21
→ -0.7%	-0.27	i
COC(=O)c1ccc(C(=O)OCc2nc3cc4ccccc4cc3[nH]2)cc1
→ 8.2%	.	i
CCOc1ccc2[nH]c(=O)c(C(c3nnnn3CCOC)N3CCOCC3)cc2c1 (centres undefined)
→ 3.1%	0.11	i
O=C(CCn1c(=O)oc2ccccc21)N1CCc2ccccc21
→ -0.6%	0.28	i
Cc1cc(C)cc(N2C(=O)CC(n3ccnc3)C2=O)c1 (centres undefined)
→ 0.3%	0.05	i

New compounds follow.
SMILES | Hsc70 ATP site | WNV NS2B-NS3 inh | MT1-MMP reporter
CCNC(=O)NC(=O)C(C)Sc1ccc2c(c1)OCCO2 (centres undefined) | 2.5% | . | i
COc1ccccc1CC(=O)NCCc1ccc(S(N)(=O)=O)cc1 | -8.5% | 0.38 | i
O=C(CC(=O)Nc1ccccn1)Nc1ccccn1 | 7.9% | 2 | i
CCC(=O)Nc1ccc(NC(=O)c2cc3ccccc3o2)cc1 | -1.7% | -0.89 | i
CCCS(=O)(=O)N1CCC(C(=O)NCCCN2CCC(Cc3ccccc3)CC2)CC1 | 2.5% | . | i
Cc1cc(NC(=O)CSc2ccccc2)no1 | -1.1% | -0.6 | i
CS(=O)(=O)N1CCN(c2nnc(-c3ccccc3)c3ccccc23)CC1 | -7.8% | 0.24 | i
CC(=O)Nc1cccc(NC(=O)c2c(-c3ccccc3Cl)noc2C)c1 | -0.7% | 0.23 | i
c1ccc2c(c1)nc(CN1CCOCC1)n1c3ccccc3nc21 | 3.0% | 0.71 | i
Cc1cc2cc(CNC(=O)c3cccs3)ccc2n1C | -7.4% | -0.42 | i
Cc1cc2cc(C)c3nnc(SCC(=O)NCc4ccco4)n3c2cc1C | 8.8% | 0.63 | i
O=C(Cc1nc2ccccc2s1)c1ccc(O)cc1O | 2.2% | -0.87 | i
COCCNC(=O)CSc1nc2cc(OC)c(OC)cc2c(=O)n1Cc1ccc(OC)cc1 | -3.4% | 0.84 | i
CC1=C(C(=O)Nc2ccccc2)C(c2ccc(C)o2)n2ncnc2N1 (centres undefined) | 2.4% | -0.11 | i
COc1ccc(N(C)S(=O)(=O)c2ccc3c(c2)CCC(=O)N3)cc1 | -6.6% | -0.85 | i
CCOC(=O)c1c(NC(=O)c2ccco2)sc2c1CCCC2 | 1.2% | 0.16 | i
CCN(c1ccccc1)S(=O)(=O)c1ccc(Oc2ccc(-n3ccnc3)cc2)nc1 | 4.5% | 1 | i
c1ccc(-c2nnc(CSc3nc4ccccc4[nH]3)o2)cc1 | -0.1% | 1.1 | i
O=C(Nc1cccc(F)c1)c1ccc2c(c1)OCO2 | -4.5% | 0.99 | i
COc1ccccc1CNc1nc2nc(C)cc(=O)n2[nH]1 | -2.6% | 0.44 | i
CCOC(=O)c1cnc2ccc(OCC)cc2c1N1CCN(c2ccccc2OC)CC1 | 5.9% | . | i
O=C(COC(=O)c1cccnc1)c1ccc(Cl)c(Cl)c1 | -1.2% | . | i
COc1ccc(NC(=O)CN2CCC(C(N)=O)CC2)cc1 | 0.2% | 0.48 | i
O=C(Cc1cn2ccsc2n1)Nc1cccc2cnccc12 | -3.2% | 0.88 | i
COc1ccc(OC)c(NC(=O)CSc2nc3ccccc3c(=O)n2CCNC(C)=O)c1 | -2.1% | -0.21 | i
Cc1ccccc1Cn1c(=O)c2c(nc3n2CCCN3Cc2ccccc2)n(C)c1=O | -0.8% | -0.1 | i
COc1ccc(CCn2c(C)cc3c(c2=O)C(c2ccc4c(c2)OCO4)C(C#N)=C(N)O3)cc1OC (centres undefined) | 0.6% | 0.55 | i
CN1CCC2(CC1)Nc1nc(SCc3ccc(Cl)cc3)nn1C1=C2CN(C)CC1 | -0.3% | -0.88 | i
O=C(CSc1nncs1)NCc1ccc2c(c1)OCO2 | -1.9% | -0.81 | i
CN1CCN(C2=Cc3ccccc3Sc3cc(F)ccc32)CC1 | -2.2% | . | i
CC1(C)Cc2c(c(=S)nc(-c3ccccc3)n2CCCN2CCOCC2)CO1 | 4.8% | -0.0083 | i
CN1c2ccccc2C(C)(C)C12CC(CCl)=NO2 (centres undefined) | -3.7% | . | i
CC(=O)[C@@H]1[C@@H]2C(=O)N(Cc3ccccc3)C(=O)[C@@H]2C2c3ccccc3C=CN21 (some centres undefined) | 13% | -0.51 | i
CCOc1ccc(CNC(=O)NS(=O)(=O)c2ccc(OC)cc2)cc1 | -1.1% | -0.16 | i
CCN(CC)c1cc(C)c2cc(NC(=O)CNC(C)=O)ccc2n1 | 0.0% | -0.88 | i
O=C(O)C1CSC(c2ccccc2)N1C(=O)c1ccco1 (centres undefined) | 2.1% | -0.56 | i
O=C1C=C(NCc2ccncc2)CC(c2ccccc2)C1 (centres undefined) | 2.2% | -0.11 | i
Cc1ccc(OCc2nnc(SCc3nc4ccccc4[nH]3)n2Cc2ccco2)cc1 | 1.6% | -0.54 | i
CN(C)C(=O)CSc1nnc(Cc2ccccc2)n1Cc1ccco1 | 3.4% | . | i
COc1ccc(OC)c(-n2cc3c(=O)n(C)c(=O)n(C)c3c2)c1 | 0.3% | 0.45 | i
COc1ccccc1NC(=O)CC(NCCN(C)C)C(=O)O (centres undefined) | 0.1% | . | i
COCCn1c(=O)[nH]c2cc(C(=O)NCCc3ccc(OC)c(OC)c3)ccc2c1=O | 2.0% | -0.68 | i
COc1ccc2oc(C)c(C(=O)Cn3ccnc3)c2c1 | -1.1% | 0.07 | i
O=C1c2ccccc2NC(c2ccncc2)N1c1ccccn1 (centres undefined) | 1.0% | 1.8 | i
COCCn1c(=NC(=O)CSC(C)=O)sc2cc(F)ccc21 | -2.0% | -0.75 | i
Cc1sc(NC(=O)CSc2nnc(-c3ccccc3)o2)c(C#N)c1C | -0.8% | 0.01 | i
CC(C)OC(=O)CSc1nc2ncccc2[nH]1 | -2.5% | 0.75 | i
CCCc1cc(C(=O)Nc2ccccc2C(=O)OC)no1 | -0.8% | 0.88 | i
COc1cc(CNCc2ccc(OC)c(OC)c2OC)cc(OC)c1 | -1.7% | 0.2 | i
Cc1[nH]n(-c2ccccc2)c(=O)c1-c1ccc(Cl)cc1 | 0.8% | . | i
Cc1ccc(C2C(C#N)=C(N)SC(N)=C2C#N)o1 | -20% | -0.28 | i
Cc1cccc2c(=O)n3c(nc12)CCCCC3 | -0.4% | . | i
Cc1nc(CCNS(=O)(=O)c2cccs2)cs1 | 3.8% | -0.06 | i
O=C(CSc1nnnn1-c1ccccc1)Nc1nc(-c2ccccc2)ns1 | -0.5% | -0.57 | i
CC1=C(C(=O)NCc2ccccc2)C(c2cccs2)n2ncnc2N1 (centres undefined) | 1.3% | 1.4 | i
Cn1c(SCC(=O)N2CCN(c3cccc(Cl)c3)CC2)nnc1-c1ccncc1 | -3.0% | 1.1 | i
CCOC(=O)c1c(C)oc2cc(Br)c(OC(C)C(=O)OCC)cc12 (centres undefined) | 1.0% | -0.28 | i
CCc1ccc(-c2cn3nc(C)c(C)nc3n2)cc1 | -8.4% | 1.8 | +
Cc1[nH]nc2c1C(C1CC=CCC1)C(C#N)=C(N)O2 (centres undefined) | 5.2% | -0.18 | +
COc1ccc(C(C)=O)c(Oc2nc(CN3CCOCC3)nc3scc(-c4cccs4)c23)c1 | -77% | -0.04 | i

Going on with the list:
SMILES | Hsc70 ATP site | WNV NS2B-NS3 inh | MT1-MMP reporter
O=C(O)CC(c1cccc2ccccc12)n1cccc1 (centres undefined) | 5.5% | . | i
Cc1ccc2c(c1)[nH]c1c(=O)n(CCN3CCNCC3)cnc12 | -1.0% | 1.4 | i
COc1ccc(S(=O)(=O)N2C3CCC2CC(NC(=O)NC2CCCCC2)C3)cc1 (centres undefined) | 4.7% | . | i
O=C(C1CCCN(Cc2ccccc2Br)C1)N1CCCCC1 (centres undefined) | -2.3% | -0.48 | i
O=C1c2ccccc2NC(c2ccco2)N1O (centres undefined) | 1.9% | 0.17 | i
O=S(=O)(Cc1ccccc1)N1CCCC(c2nc(-c3ccc(F)cc3)no2)C1 (centres undefined) | -5.3% | -2 | i
CC(C)NC(=O)c1ccc(COCC(F)(F)C(F)F)cc1 | 0.7% | . | i
c1cnc(N2CC[N+]3(CCCC3)CC2)nc1 | -3.6% | 0.25 | i
COc1ccc(-c2nnc3ccc(SC(C(C)=O)C(C)=O)nn23)cc1OC | 2.0% | 0.15 | i
O=c1[nH]c(CN2CCCCC2)nc2c1C1(CCCC1)Cc1ccccc1-2 | 3.6% | 0.02 | i
COC(=O)Cc1c(C)c2ccc(OCc3nn[nH]n3)c(C)c2oc1=O | -1.3% | . | i
COc1ccc(NC(=O)CCOc2ccccc2)c(OC)c1 | -4.1% | -1.4 | i

A different layout for two compounds above.
compound	Hsc70 ATP site	WNV NS2B-NS3 inh	MT1-MMP reporter
N#CC1=C(N)N(c2ccccc2)C2=C(C(=O)CCC2)C1c1ccsc1 (centres undefined)	2.6%	0.88	i
COc1ccc(OC)c(S(=O)(=O)Nc2cccc(F)c2)c1	0.5%	.	i

Carrying on:
SMILES | Hsc70 ATP site | WNV NS2B-NS3 inh | MT1-MMP reporter
O=C(O)c1ccc(S(=O)(=O)NC2CCCc3ccccc32)cc1 (centres undefined) | -1.6% | -0.74 | i
FC(F)(F)c1cc(-c2ccccc2)nc(N2CCOCC2)n1 | 4.1% | . | i
CCOC(=O)NC(Nc1cc(C)on1)(C(F)(F)F)C(F)(F)F | -6.4% | -0.43 | i
CCn1c(C)c(C(C)=O)c(NCc2ccccc2)nc1=S | 0.9% | 0.75 | i
Cn1c(=O)c2c(nc(SCC(=O)Nc3ccccc3)n2C)n(C)c1=O | 2.9% | 0.2 | i
CCc1ccc(-c2nc(CS(=O)CC(=O)NCc3cccnc3)c(C)o2)cc1 (centres undefined) | -2.6% | 0.06 | i
CCOc1cc(C2c3c(n[nH]c3C)C(=O)N2c2ccc(C)cc2)ccc1O (centres undefined) | 0.0% | -0.54 | i
COC(=O)CN(c1cc(OC)ccc1OC)S(=O)(=O)c1ccc(OC)c(OC)c1 | -5.6% | 0.03 | i
Cc1ccc2[nH]c(=O)c(C(c3nnnn3CC3CCCO3)N3CCOCC3)cc2c1 (centres undefined) | -2.1% | -1 | i
COCCCNC(=O)C1CCN(C(=O)c2cc3sccc3n2Cc2ccc(F)cc2)CC1 | -7.3% | 0.54 | i

Compound activity from PubChem.
